# PINK1 expr mod = A Quantitative High throughput Screen to Identify Chemical Modulators of PINK1 Expression | PINK1 immunofluorescence, high-content cytometry, 24 h | Potency, µM (series often up to 76.6 µM), for the others: at the highest dose activation (PINK1 increase), hits mostly activators | 410,000 compounds, 0.2% hits; active = well fitted activation curve with a large enough effect; inconclusive = small, poorly fitted or top-dose-only effect; inactive = flat fitted curve, though single readings scatter; cell line not stated here;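 also: potency is read from the fitted curve at half-maximal effect; % of control where 0% means no effect; nearly all actives have a fitted effect of over 65% in size; a mitochondrial uncoupler was the plate control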
#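 Stable cell line treated 24 h with compounds at 5 concentrations (CCCP controls), then fixed and immunostained for PINK1 plus nuclear and cell stains; PINK1 immunofluorescence quantified by laser-scanning microplate cytometry.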
# D2 ag = Beta-Arrestin HTS for Positive Allosteric Modulators of the Human D2 Dopamine Receptor: Agonists; D(2) dopamine receptor (Homo sapiens), P14416; DiscoveRx PathHunter D2 beta-arrestin, luminescence, 90 min; 100% = 57 uM dopamine signal; activation, % (concentration not given with the values); 360,000 compounds, 0.084% hits; in the data active = activation above about 40%; inconclusive = about 15% to 40%; inactive = below about 15%; also: the text of the record calls up to 30% inactive
# Target sequence (P14416 whole entry, looked up): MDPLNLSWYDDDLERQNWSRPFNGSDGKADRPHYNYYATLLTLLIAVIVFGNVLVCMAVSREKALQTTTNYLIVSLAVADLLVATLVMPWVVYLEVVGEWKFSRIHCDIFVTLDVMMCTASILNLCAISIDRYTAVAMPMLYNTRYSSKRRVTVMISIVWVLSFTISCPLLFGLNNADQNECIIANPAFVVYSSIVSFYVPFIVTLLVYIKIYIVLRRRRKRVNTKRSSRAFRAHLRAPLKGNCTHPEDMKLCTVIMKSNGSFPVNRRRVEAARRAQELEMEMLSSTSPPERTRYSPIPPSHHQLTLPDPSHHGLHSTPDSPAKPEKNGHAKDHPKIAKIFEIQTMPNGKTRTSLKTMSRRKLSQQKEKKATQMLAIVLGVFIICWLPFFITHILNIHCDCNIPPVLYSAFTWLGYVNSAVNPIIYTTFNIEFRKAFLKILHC
#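 DiscoveRx PathHunter D2 beta-arrestin cells (2,100/well) attached overnight, then compound-stimulated 90 min at 37 C in HBSS/10 mM HEPES/0.1% Tween-20 buffer; beta-galactosidase complementation read by luminescence after 1 h at ambient temperature. Dopamine 57 uM final (EC100) as control.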
# D2 PAM = Beta-Arrestin HTS for Positive Allosteric Modulators of the Human D2 Dopamine Receptor: Potentiators. D(2) dopamine receptor (Homo sapiens), P14416. DiscoveRx D2 beta-arrestin cells, luminescence, 90 min; 100% = 57 uM dopamine signal. potentiation, % (concentration not given with the values). 360,000 compounds, 0.23% hits; active = potentiation of 50% or more; inconclusive = 30% to 50%; inactive = 30% or less;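 also: tested on top of an EC20 dose of dopamine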
#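 PathHunter D2 cells, attached overnight at 37 deg C, received compound in DMSO plus dopamine at EC20 (50 nM final) for 90 min at 37 deg C. Beta-arrestin recruitment was read as luminescence after 1 h with detection reagent at ambient temperature.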
# CtBP-E1A blk = qHTS Assay for Inhibitors of the CtBP/E1A Interaction; AlphaScreen GST-E1A/His-CtBP binding, 1536-well; stronger effect = lower value; control for the full effect not named in the record; activity change, % (no concentration beside the values); 340,000 compounds, 0.49% hits; AID 651724, 2012; in the data active means activity change below about -65%; inconclusive means about -30% to -65%; inactive means above about -30%; also: % is scaled to controls: 0 for no effect and ±100 for the full control effect
#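 AlphaScreen with 125 nM GST-E1A and 125 nM His-CtBP (5X stocks) in Tris pH 8.0, 300 mM NaCl, BSA, Tween 20, TCEP. Compounds preincubated 2 h at 37 deg C, then glutathione donor/nickel acceptor beads added for 1 h at 37 deg C in dark.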
# Six1-Eya2 inh = qHTS Assay for Inhibitors of the Six1/Eya2 Interaction. activity change, % (no concentration beside the values). 360,000 compounds, 0.56% hits. AlphaScreen GST-Six1/His-Eya2 binding, biochemical; stronger effect = lower value; control for the full effect not named in the record. Homeobox protein SIX1 (Homo sapiens) + Protein phosphatase EYA2 (Homo sapiens), …; in the data active = activity change below about -65%; inconclusive = about -30% to -65%; inactive = above about -30%; also: % is scaled to controls: 0 for no effect and ±100 for the full control effect
#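 GST-Six1 + His-Eya2 (5X stock: 250/500 nM); Tris pH 8.0, 300 mM NaCl, 0.05% BSA, 0.02% Tween 20; GSH donor/Ni acceptor beads; 1 h 37 °C dark; AlphaScreen readout.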
# TRPML1 ag = qHTS for Agonists of the Human Mucolipin Transient Receptor Potential 1 (TRPML1) | Mucolipin-1 (Homo sapiens), Q9GZU1 | TRPML1-expressing cells, Ca2+ dye fluorescence, FDSS; host cell line not named in the record; reference of the full effect not given here | activation, % (concentration not given with the values) | 410,000 compounds, 0.12% hits; in the data active = activation above about 50%; inconclusive = about 30% to 50%; inactive = below about 30%; also: 0% is about no effect; the text of the record puts the active cut at 80%
# Target sequence (Q9GZU1 whole entry, looked up): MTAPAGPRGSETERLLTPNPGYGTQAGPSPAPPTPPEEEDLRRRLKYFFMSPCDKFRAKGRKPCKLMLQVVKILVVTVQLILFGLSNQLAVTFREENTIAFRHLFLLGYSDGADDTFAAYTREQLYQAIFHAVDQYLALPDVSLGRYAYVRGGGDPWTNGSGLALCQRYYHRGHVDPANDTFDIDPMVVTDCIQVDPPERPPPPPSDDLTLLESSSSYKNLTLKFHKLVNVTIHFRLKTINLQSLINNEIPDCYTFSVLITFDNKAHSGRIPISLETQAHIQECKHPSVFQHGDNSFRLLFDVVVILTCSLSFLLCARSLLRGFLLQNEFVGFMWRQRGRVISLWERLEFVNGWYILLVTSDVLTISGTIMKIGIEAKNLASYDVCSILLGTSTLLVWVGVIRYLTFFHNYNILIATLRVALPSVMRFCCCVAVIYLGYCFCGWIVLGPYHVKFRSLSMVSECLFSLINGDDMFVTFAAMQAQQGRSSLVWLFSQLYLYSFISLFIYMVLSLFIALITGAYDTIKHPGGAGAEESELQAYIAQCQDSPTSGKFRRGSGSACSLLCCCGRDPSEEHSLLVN
#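 Calcium fluorescence on an FDSS kinetic reader gave the read-out. Tet-induced TRPML1-DL cells were plated overnight, dye-loaded (Ca8 with quencher, 45-90 min, room temperature, dark), then read 110 s after compound addition, and again 110 s after 4uM final 54-4 (EC80).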
# * = called active by the depositor; ? = inconclusive; . = not tested or not shown; & = joins results of further samples; [ ] = dose if it differs, or a comment.
Compound	PINK1 expr mod	D2 ag	D2 PAM	CtBP-E1A blk	Six1-Eya2 inh	TRPML1 ag
CC(O)(CS(=O)(=O)Cc1ccccc1)c1ccc(Cl)cc1 (stereo not drawn)	1.1%	-0.5	-1	.	0	0.2
Cc1ccc(Cl)cc1C1=CC(=O)C[C@H](c2ccc(F)cc2)C1	2.9%	-2.3	-11	25	22	3.5
CS(=O)(=O)N(CC(=O)NCCSc1ccccn1)c1cccc2ccccc12	1.1%	0.3	-3	8	-9	0.0
Cc1cc(C)c2nc(-c3ccccn3)cc(C(=O)NCCc3ccc(S(N)(=O)=O)cc3)c2c1	10.0%	2.5	6	4	3	-0.6
COc1ccc(CNCc2cccc3ccccc23)cc1	7.8%	-3.9	-68	.	-1	0.5
Cc1nc2ccc(NC(=O)N3CCSCC3)cc2nc1C	0.8%	3.3	8	-8	-4	-0.1
CCOC(=O)[C@H]1[C@H]2COc3ccc(Cl)cc3[C@H]2N2C(=O)CNC(=O)[C@@]12C	4.4%	-3.5	-7	2	0	-0.3
Cc1ccc(-c2cc(NC(=O)CCl)n(-c3ccccc3)n2)cc1	-2.0%	-2.7	-14	4	1	0.9
O=C(CCc1nnc2ccc(NCc3ccccc3)nn12)NC1CCCC1	1.4%	-0.4	-9	0	0	-0.6
COc1ccc(Br)cc1CNc1ccc(N2CCOCC2)cc1	2.3%	8.8	-8	.	?	1.7
COc1ccccc1NC(=O)CSc1ccc2nnc(-c3ccc(C)cc3)n2n1	0.1%	-0.1	1	-8	-6	0.0
CC(C)NC(=O)C1(C)CCN1C(=O)c1ccccc1F (stereo not drawn)	0.3%	-5.7	-2	1	-2	-0.5
O=C(NCc1ccccc1)c1cc(-c2cccc(O)c2)on1	-0.8%	-7.3	-3	6	5	0.8
Clc1cccc(NCc2nnc(SCc3ccc(Cl)cc3Cl)o2)c1	0.9%	-4.8	4	18	32	0.4
CN(C)S(=O)(=O)c1ccc(C(=O)Nc2cc(=O)n(C)c(=O)n2C)cc1	0.1%	-0.7	-11	13	12	-0.6
O=C(Nc1ccc2c(c1)OCO2)C1CC(=O)N(c2ccccc2)C1 (stereo not drawn)	3.1%	-0.8	0	-1	-9	0.2
COc1ccc2c(C)c(CC(=O)N3CCN(C(=O)C4COc5ccccc5O4)CC3)c(=O)oc2c1C (stereo not drawn)	4.9%	2.1	-5	2	-8	0.8
COc1ccc([C@@H]2CC=C(C(=O)O)[C@H](c3ccc(F)cc3)N2S(=O)(=O)c2ccc(C)cc2)cc1OC	0.5%	-2.5	-11	.	0	-0.2
CCOC(=O)c1sc(N(Cc2ccccc2)C(=O)COC(=O)c2ccccc2O)nc1C	2.2%	-4.8	-12	5	2	1.5
COc1ccc(N(CC(=O)N2CCCCC2)S(=O)(=O)c2c(C)nn(C)c2C)cc1	1.4%	-2.6	-3	-16	?	-0.8
Cc1cc(C)c2c(n1)nn1c(NCCCN(C)C)cc(C)nc21	0.3%[38.3 µM]	-1.9	8	0	-9	-0.9
COc1ccc(C)cc1S(=O)(=O)N1CCN(C(=O)c2ncoc2-c2cccc(C)c2)CC1	1.1%	-2.1	-8	5	2	-0.5
COc1ccc(C(=O)Nc2ccncc2)cc1OC	.	3.9	5	5	-1	-0.3
N#Cc1ccsc1NC(=O)C1CCN(S(=O)(=O)c2cccs2)CC1	2.1%	-1.2	1	0	-18	0.4
Cc1c(Cl)cccc1NC(=S)N(CCN(C)C)C(C)c1ccco1 (stereo not drawn)	1.3%	-1.3	-23	-6	-12	-0.2
Cc1ccc(C(=O)N2CC3(C(C)C)CN(C(=O)c4ccc(C)cc4)CC(C(C)C)(C2)C3=O)cc1	1.9%	-0.1	-6	0	0	0.3
O=C/C=C/c1coc2ccc3ccccc3c2c1=O	-0.4%	0.1	0	.	3	2.0
Cc1cccc(NS(=O)(=O)c2cccc(C(=O)NCCCN3CCCC3=O)c2)c1	0.1%	-3.0	-1	6	9	-1.1
CC(C)C1C(=O)N(Cc2cn(CCC3OCCO3)nn2)CCS(=O)(=O)N1Cc1ccc(-c2ccccc2Cl)cc1 (stereo not drawn)	9.0%	8.1	0	-4	-13	0.2
CCOC(=O)CSc1nc2cc(C(=O)N3CCC(C(N)=O)CC3)ccc2c(=O)n1-c1ccccc1	-1.9%[38.3 µM]	1.6	-5	2	1	0.8
N#CCC(=O)Nc1ccc(C(=O)OCC(=O)c2ccc3c(c2)OCCO3)cc1	14%	-3.1	-2	2	9	0.9
O=S(=O)(Cc1ccccc1)NCCc1cccc(Cl)c1	1.5%	8.1	-7	9	3	0.6
COc1ccccc1-c1coc2c(CN(C)C)c(O)ccc2c1=O	1.2%	0.6	-1	.	6	-0.7
CC1CCCC(NC(=O)Nc2cccs2)C1C (stereo not drawn)	-1.5%	0.1	-1	-3	-1	2.5
COC(=O)c1cc(O)c(O)c(O)c1	3.4%	0.1	6	.	-8	-0.3
O=S(=O)(NC1CCc2ccccc21)c1ccccc1 (stereo not drawn)	1.0%	-8.8	-6	-11	-1	-0.3
COc1cc2c(cc1OC)C(C)N(C(=O)Nc1cc(C)cc(C)c1)CC2 (stereo not drawn)	6.6%	1.5	-4	.	3	0.7
CCC(=O)Nc1cccc(NC(=O)c2ccccc2Cl)c1	-0.1%	-1.9	-4	3	8	-0.6
C/C=C(\C)C(=O)OC1CC(C)(C)C[C@H]2C3=CC[C@@H]4[C@@]5(C)CCC(O[C@@H]6O[C@@H](C(=O)O)[C@@H](O)C(O[C@@H]7OC[C@H](O)[C@@H](O)[C@@H]7O[C@@H]7OC(CO)C(O)[C@@H](O)[C@@H]7O)C6O[C@@H]6OC(CO)C(O)C(O)C6O)[C@@](C)(CO)[C@@H]5CC[C@]4(C)[C@]3(C)CC(O)[C@@]12CO (stereo partly drawn)	-1.5%	?	7	7	-8	19
Cc1nn(C(C)(C)C)c(NC(=O)c2ccc(Cl)cc2Cl)c1Br	7.4%	-2.4	-2	3	10	1.0
Cc1ccc(-c2cc(=O)c3ccc(Cl)cc3[nH]2)cc1	2.9%	-1.8	-3	8	1	-0.1
Cc1ccccc1OCC(=O)N/N=C/c1ccc(N(C)C)cc1	3.5%	-0.6	-6	0	-5	1.3
CCOC(=O)C1(CCOC)CCN(Cc2nc(-c3cccs3)oc2C)CC1	-0.7%	-3.0	-14	7	6	1.2
c1coc(CNc2nc(-c3cccs3)cs2)c1	3.3%	2.0	-6	-8	-10	0.0
CCOc1ccc(C(=O)OC2CCN(C)CC2)cc1	-0.4%	-1.8	3	7	-5	-0.3
CC12CCC(=O)N1C(C(=O)Nc1nc3c(F)cc(F)cc3s1)CS2 (stereo not drawn)	6.4%	2.3	-19	-1	-3	-0.3
COc1cccc(C(C)NC(=S)NCc2ccc(F)cc2)c1 (stereo not drawn)	-0.6%	-6.9	-15	-2	-14	0.3
COC(=O)c1cc(S(=O)(=O)N2CCCCCC2)c[nH]1	-1.4%	-6.3	-4	-1	12	-0.8
N/C(Cn1cncn1)=N\NC(=O)C(=O)Nc1ccccc1	-1.2%	1.0	-6	-26	-12	0.7
CCc1sc(C(=O)Nc2ccc(NC(C)=O)cc2)cc1C	0.6%	-0.5	-3	-22	-12	0.9
CCc1nc2ccc(C(=O)Nc3cc(-c4ccccc4)ccc3OC)cn2c1N(C)Cc1nccs1	-0.7%	5.0	-9	-22	-24	0.0
Cc1ccc(C2=NS(=O)(=O)N(C)C(C(=O)NC(C)c3ccccc3)=C2)cc1 (stereo not drawn)	2.9%	0.7	-3	0	-11	1.6
NC(=O)c1cccn1Cc1cccc(Cl)c1	7.3%[38.3 µM]	-2.4	-12	2	-4	0.2
Cc1ccc2nc(NC(=O)C(NS(=O)(=O)c3cccc4nsnc34)C(C)C)sc2c1 (stereo not drawn)	-0.1%	-2.3	-7	1	-10	-1.2
COc1cc(CNCc2ccccn2)ccc1OCC(=O)NC(C)(C)C	0.9%	-5.5	6	-4	?	-0.4
O=C1[C@H]2[C@@H](c3ccc(C(F)(F)F)cc3)N[C@]3(CCCN(Cc4ccco4)C3=O)[C@H]2C(=O)N1Cc1ccccc1	1.0%	-3.5	-4	6	-10	1.2
CC(=O)Nc1cccc(C(=O)N/N=C/c2ccc(F)cc2)c1	0.0%	-3.4	-15	-1	-1	0.0
C=CCn1c(SCC(N)=O)nc2scc(-c3ccc(C)o3)c2c1=O	-2.2%	-1.8	-1	-22	-10	3.8
CN(C)c1ccc(CNC(=O)CN(C)S(=O)(=O)c2ccc3c(c2)c(=O)n(C)c(=O)n3C)cc1	-1.1%&2.8%	6.4	-4	-5	3	-0.1&0.2
O=C(COc1ccc(Cl)cc1)Nc1ccccc1C(=O)NCc1cccnc1	2.8%	-3.4	0	0	-9	2.5

# Pulled by compound from above (three):
Compound	PINK1 expr mod	D2 ag	D2 PAM	CtBP-E1A blk	Six1-Eya2 inh	TRPML1 ag
O=C1[C@H]2[C@@H](c3ccc(C(F)(F)F)cc3)N[C@]3(CCCN(Cc4ccco4)C3=O)[C@H]2C(=O)N1Cc1ccccc1	1.0%	-3.5	-4	6	-10	1.2
CCc1nc2ccc(C(=O)Nc3cc(-c4ccccc4)ccc3OC)cn2c1N(C)Cc1nccs1	-0.7%	5.0	-9	-22	-24	0.0
N/C(Cn1cncn1)=N\NC(=O)C(=O)Nc1ccccc1	-1.2%	1.0	-6	-26	-12	0.7

# Other entries:
Compound	PINK1 expr mod	D2 ag	D2 PAM	CtBP-E1A blk	Six1-Eya2 inh	TRPML1 ag
CCc1ccc(C(=O)COc2ccc(NC(C)=O)cc2)cc1	-0.8%	1.0	5	2	6	1.4
CNc1ncnc2c1ncn2-c1ccccc1	-1.1%	-0.3	-7	12	-6	-0.3
CC(=O)N1CC2(c3ccccc3)CN(C(C)=O)CC(c3ccccc3)(C1)C2=O	-0.9%	-0.4	1	14	6	0.6
Cn1c(SCC(=O)Nc2ccc3c(c2)OCCO3)nnc1-c1ccco1	2.5%	-0.1	-9	13	4	-1.4
CCn1nc(C)c(CNC(=O)C2CCC(=O)N(Cc3ccc(Cl)cc3)C2)c1C (stereo not drawn)	3.5%	-3.5	26	20	4	0.6
Cc1ccnc(NC(=O)c2cc3c(=O)oc4ccc(C)cc4c3s2)c1	6.5%	1.5	2	10	-1	-0.5
CCn1c(CNc2ccc(Cl)cc2)nnc1SCC(=O)NCc1ccccc1	-1.2%	-1.8	-7	0	0	-0.9

# Compound activity: PubChem BioAssay, National Center for Advancing Translational Sciences (NCATS)
